# Assay outcomes: PubChem BioAssay, National Center for Advancing Translational Sciences (NCATS)
# SARS PLpro yeast: blocks SARS-CoV papain-like protease in a yeast assay | S. cerevisiae expressing SARS-CoV PLpro, growth rescue; control for the full effect not named in the record | Potency, µM (titrated, usually from 32.9 µM), for the others: at the top dose activity, positive = growth rescue | actives 0.19% (n = 330,000) | AID 485353; further: 0% is about no effect; nearly all actives have a fitted effect of over 55% in size; growth read by luminescence after 48 h
# Cruzain inh Det: cruzain (T. cruzi) inhibition with detergent; AID 1478; Potency, µM, for inactives: max response, negative = inhibition, hits mostly inhibitors; purified cruzain, Z-FR-AMC fluorescence, 0.01% Triton; P25779; actives 0.43% (n = 200,000); active means well fitted curve in the direction sought with a large enough effect; inconclusive means small, poorly fitted or top-dose-only effect, or another doubt; inactive means no such curve, though single readings can be large; an effect the other way counts as inactive or inconclusive;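 further: plate controls were neutral wells for no effect and buffer without enzyme for full effect; nearly all actives have a fitted effect of over 40% in size; top concentration of the series not given in the record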
# Target sequence (P25779 123-467 limits assumed): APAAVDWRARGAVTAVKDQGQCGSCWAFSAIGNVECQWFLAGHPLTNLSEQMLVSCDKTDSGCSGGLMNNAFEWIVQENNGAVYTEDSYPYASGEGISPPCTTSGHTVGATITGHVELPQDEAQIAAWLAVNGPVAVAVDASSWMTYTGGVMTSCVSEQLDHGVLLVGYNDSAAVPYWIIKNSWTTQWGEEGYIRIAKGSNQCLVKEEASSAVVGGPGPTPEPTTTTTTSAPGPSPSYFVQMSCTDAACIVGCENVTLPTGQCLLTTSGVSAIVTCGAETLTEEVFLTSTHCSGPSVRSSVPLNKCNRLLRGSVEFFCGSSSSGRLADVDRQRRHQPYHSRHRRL
#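 Compounds were screened in titration against cruzain (1.5 nM) with 0.01% Triton X-100 to counter colloidal aggregation. Activity was the AMC fluorescence increase over 60 s after adding 2 uM Z-FR-AMC at pH 5.5.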
# MARV entry inh: Marburg virus entry inhibition; Marburg virus pseudotyped entry inhibition, cell reporter; control for the full effect not named in the record; about a third of the inactives were read at about 46 µM; Potency, µM (top dose mostly 37.8 µM), inactives show at the top dose activity change, negative = inhibition, usual class: inhibitors; actives 1.8% (n = 300,000); AID 540276; active = well fitted inhibition curve with a large enough effect; inconclusive = small, poorly fitted or top-dose-only effect, or effect the other way; inactive = flat fitted curve, though single readings scatter; tested in HEK293 cells; about a fifth of its hits are not listed in these tables; further: on the % scale 0 is the no-effect control and ±100 the full control effect; luciferase read-out
# Lassa entry inh: inhibitors of Lassa virus binding or cell entry | Lassa virus pseudotype entry inhibition, cell reporter; control for the full effect not named in the record | Potency, µM (highest dose often 37.9 µM), without a hit: at the highest dose activity change, negative = inhibition, usual class: inhibitors | actives 1.2% (n = 300,000) | AID 540256; active means well fitted inhibition curve with a large enough effect; inconclusive means small, poorly fitted or top-dose-only effect, or effect the other way; inactive means flat fitted curve, though single readings scatter; tested in HEK293 cells; further: on the % scale 0 is the no-effect control and ±100 the full control effect; nearly all actives have a fitted effect of over 50% in size; luciferase read-out
# RE007 growth inh: less growth of the S. pombe RE007 Vpr strain; S. pombe RE007 Vpr strain, BacTiter-Glo ATP luminescence, 24 h; control for the full effect not named in the record; Potency, µM (doses to about 92.2 µM), without a hit: at the highest dose activity change, negative = less growth; actives 0.21% (n = 360,000); active = well fitted falling curve with a large enough effect; inconclusive = small, poorly fitted or top-dose-only effect; inactive = no such curve, though single readings can be large or run the other way;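 further: on the % scale 0 is the no-effect control and ±100 the full control effect; nearly all actives have a fitted effect of over 50% in size; the assay follows cell death caused by Vpr and the record does not say whether a fall means rescue or toxicity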
#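 Fission yeast strain RE007, carrying one chromosomally integrated HIV-1 vpr copy, was seeded at OD 0.01 in PMG+AL medium with 23 nL pinned compound. After 24 h at 30 °C and 99% humidity, viability was read by BacTiter-Glo luminescence.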
# 2A StopGo: FMDV 2A StopGo reporter, luciferase signal. human cells with a luciferase reporter of 2A StopGo recoding; control for the full effect not named in the record. Potency, µM (doses to about 57.9 µM), for the others: top-dose signal change, negative = less light. actives 1.2% (n = 410,000); active = well fitted falling curve with a large enough effect; inconclusive = small, poorly fitted or top-dose-only effect; inactive = no such curve, though single readings can be large or run the other way; tested in HEK293T cells; further: on the % scale 0 is the no-effect control and ±100 the full control effect; nearly all actives have a fitted effect of over 45% in size; luciferase light after 4 h
# NS1 function inh: inhibitors of influenza NS1 protein function. S. cerevisiae slowed by influenza A NS1, growth recovery by OD600. Potency, µM (titrated, usually from 46.1 µM), for inactives: at the top dose activity, positive = more growth. actives 0.4% (n = 270,000); further: actives are rising curves; nearly all actives have a fitted effect of over 50% in size
#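 In this qHTS, NS1 from influenza A is expressed in budding yeast, where it slows growth. Cells are switched from glucose to 2% galactose medium (pH 6.0, -URA), treated with compound, and growth recovery is read at OD600.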
# Cruzain noTriton: blocks cruzain activity in detergent-free assay | Potency, µM, without a hit: max response, negative = inhibition, most hits filed as inhibitors | actives 2.3% (n = 200,000) | AID 1476 | P25779 | purified cruzain, Z-FR-AMC fluorescence, no detergent; active means well fitted curve in the direction sought with a large enough effect; inconclusive means small, poorly fitted or top-dose-only effect, or another doubt; inactive means no such curve, though single readings can be large; an effect the other way counts as inactive or inconclusive;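 further: plate controls were enzyme without inhibitor for no effect and buffer without enzyme for full effect; nearly all actives have a fitted effect of over 40% in size; top concentration of the series not given in the record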
#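 Detergent-free condition (0.00005% Triton X-100) in acetate buffer pH 5.5 with DTT. 1.5 nM enzyme and compound were pre-mixed 15 min, then 2 uM Z-FR-AMC substrate added; reaction progress from fluorescence change between first and third reads (60 s).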
# * hit, by the source's call; ? = inconclusive; nt = no result given; [ ] = remark or other dose. Unless noted, the call rests on the fitted dose curve; in most records, active means well fitted rising curve with a large enough effect; inconclusive means small, poorly fitted or top-dose-only effect; inactive means no such curve, though single readings can be large or run the other way. Potency means the concentration at half of the fitted maximal effect.
SMILES,SARS PLpro yeast,Cruzain inh Det,MARV entry inh,Lassa entry inh,RE007 growth inh,2A StopGo,NS1 function inh,Cruzain noTriton
CC(c1ccncn1)N(C)Cc1nc(-c2ccc(C(F)(F)F)cc2)no1 (stereo not given),0%,nt,nt,nt,-17%,-25%,6%,nt
N#CC(=C1SC=CS1)c1nc(-c2ccccc2)cs1,2%,-8.3%,?,17%,-18%,46%[activator],-14%,?
C=CCn1c(SCc2cc(=O)n3ccsc3n2)nc2cc(Cl)ccc2c1=O,-2%,nt,-3%[46.1 µM],3%,-5%,?,-4%,nt
CCCNC(=O)C1CC(=O)N(c2ccc(OCc3ccc(Cl)cc3)cc2)C1 (stereo not given),-6%,nt,?,?,9%,-1%,13%,nt
COc1cccc(CNC(=O)CCCCCn2c(=S)[nH]c3ccc(N4CCOCC4)cc3c2=O)c1,9%,-3.4%,26%,-7%,nt,nt,-2%,9%
COc1ccc(CCn2c(C)cc(C(=O)COC(=O)c3cnccn3)c2C)cc1,-8%,nt,nt,nt,26%,-5%,-5%,nt
O=Cc1ccc(N2CCCC2)c([N+](=O)[O-])c1,-3%,nt,3%[46.1 µM],?,-13%,13%,nt,nt
COc1cccc(NC(=O)NNC(=O)C(C)Oc2ccc3ccccc3c2)c1 (stereo not given),1%,nt,-23%[46.1 µM],-29%[46.1 µM],11%,5%,28%,nt
Cn1c(=O)c([N+](=O)[O-])c(N2CCSCC2)c2ccccc21,0%,nt,4%,?,-8%,?,1%,nt
Cc1cc2n(n1)C(c1cn(-c3ccccc3)nc1C)Nc1c(C)cccc1-2 (stereo not given),-4%,-28%,15%,30%,-4%[3.69 µM],5%,2%,-7%
Brc1ccc(-c2nnc3sc(CNCc4ccc5c(c4)OCO5)cn23)cc1,3%,2.2%,1%,nt,-3%,-22%,6%,?
CCc1cc(=O)oc2cc(C)c(CN3CCCC(C)C3)c(O)c12 (stereo not given),3%,-1.2%,14%,-12%,-9%,-17%,6%,-17%
CC(C)(C)OC(=O)N1CCC(c2c(C(=O)N3CCN(c4cccc(Cl)c4)CC3)cnn2-c2cccc(Cl)c2)CC1,nt,-0.8%,nt,?,nt,?,nt,-5%
COC(=O)CN1C(=O)[C@H]2[C@@H](C3CC3)N3C(=O)CN(CCO)C(=O)[C@@]3(Cc3ccccc3)[C@H]2C1=O,6%,nt,nt,nt,2%,-17%,2%,nt
Cc1ccsc1C(=O)Nc1ccccc1N1CCCC1,6%,nt,-14%,-14%,-7%,-27%,nt,nt
CCN(CC)S(=O)(=O)c1ccc(-c2nnc(SCc3nnc(-c4ccccc4)o3)o2)cc1,-4%,2.5%,?,?,3%,nt,1%,25µM*
COc1cc(/C(C)=N/NC(=O)CN2CCN(S(=O)(=O)c3ccc(C)cc3)CC2)ccc1O,1%,nt,nt,nt,0%,-13%,-5%,nt
C[C@@H](C(=O)NCCc1ccc(F)cc1)N1C(=O)N2CCc3c([nH]c4ccccc34)[C@@]2(C)C1=O,-19%,nt,nt,nt,-12%,?,-51%,nt
CC(C)CC(c1nnnn1Cc1ccccc1)N1CCN(C(=O)c2ccco2)CC1 (stereo not given),0%,-0.3%,?,-24%,-1%,-17%,-4%,9%
CCOCCCNC(=O)c1ccc2c(c1)ncn2-c1ccccc1OC,1%,nt,-10%[46.1 µM],?,7%,6%,1%,nt
O=C(CCCOc1ccc(Cl)cc1)NC1CCCCC1,4%,nt,nt,nt,-9%,-9%,-2%,nt
COc1ccc(CNC(=O)CN(c2ccc(OC)c(Cl)c2)S(=O)(=O)c2ccc(C)cc2)cc1,3%,nt,?,-18%,-5%,-8%,16%,nt
O=C(O)CSc1nnc(COc2cccc3ccccc23)o1,9%,nt,8%,5%,3%,-5%,5%,nt
O=C1Cc2cc([N+](=O)[O-])ccc2N1c1c(Cl)cccc1Cl,-3%,nt,?,5%,-4%,?,16%,nt
O=C(CN1C(=O)c2ccccc2C1=O)NCCc1c[nH]c2ccccc12,-1%,-1.5%,19%,-2%,-12%,-18%,11%,-4%
Oc1ccc(/C=N/Nc2nc(-c3ccccc3F)nc3ccccc23)c(O)c1,-3%,nt,nt,nt,-2%,-19%,0%,nt
O=c1cc(-c2ccccc2)[nH][nH]1,-18%,-0.8%,22%,23%,-4%,nt,?,-5%
Cc1cc(N2C(=O)C3C4C=CC(C4)C3C2=O)no1 (stereo not given),5%,3.9%,?,14%,32%,8%,-3%,-2%
O=C(/C=C/c1ccccc1)N(c1ccccn1)C1CCCCC1,-8%,-4.8%,-17%[46.1 µM],-7%,5%,-1%,-22%,-3%
COc1cccc(-c2nnc(N)o2)c1,-2%,nt,nt,nt,-6%,29%,-10%,nt
Cc1oc2ccc(O)c(CN3CCCC3)c2c1C(=O)Nc1ccc(C(C)C)cc1,nt,-4.7%,?,?,nt,-23%,nt,-19%
COc1ccc(S(=O)(=O)N(C(=O)c2ccncc2)c2ccc3oc4c(c3c2)CCCC4)cc1,-27%,-1.6%,-24%,?,0%,6%,13%,-19%
CCn1c(/C=C/Nc2ccccc2)[n+](CC)c2ccc(Cl)cc21,2%,-8.8%,?,-11%,-25%,?,-9%,-3%
CCOc1ccc(C(C)=O)cc1NC(=O)/C=C\C(=O)O,-1%,nt,-1%,-6%[46.1 µM],-10%,6%,9%,nt
N=C1C(c2ccccc2)=C(O)CN1NC(=O)c1ccc(Cl)cc1,0%,nt,14%[46.1 µM],10%,6%,-12%,nt,nt
Nc1ccccc1C(=O)NNc1ncc(C(F)(F)F)cc1Cl,4%,3.7%,4%,-8%,1%,-15%,12%,1%
CO[C@H]1C=CO[C@@]2(C)Oc3c(C)c(O)c4c(O)c(c(C=NN5CCN(C)CC5)c(O)c4c3C2=O)NC(=O)C(C)=CC=C[C@H](C)[C@H](O)[C@@H](C)[C@@H](O)[C@@H](C)[C@H](OC(C)=O)[C@@H]1C,-1%,-19%,?,-19%,0%[18.4 µM],?,1%,?
CCn1c2ccccc2c2cc(NC(=O)CCCN3C(=O)CCC3=O)ccc21,1%,-0.5%,-28%,-29%,8%,0%,-11%,?
Cc1cc(C)n(-c2nc3ccccc3nc2Nc2ccc(CC(=O)O)cc2)n1,4%,-10%,nt,nt,12%,0%,-217%,?
Cc1nc2ccc(NC(=O)CCC3CCCC3)cc2s1,-11%,nt,16%[46.1 µM],?,-11%,0%,-19%,nt
CC1=NNC(=O)C1Br (stereo not given),nt,nt,?,0%,17%,-17%,nt,nt
O=C1OC(N2C(=O)CC[C@H]2C(=O)Nc2ccc3c(c2)OCO3)c2ccccc21 (stereo not given in full),-2%,nt,nt,nt,0%,2%,-20%,nt
CC(=O)NC(Cc1ccccc1)C(=O)NC1CCN(c2ncccc2[N+](=O)[O-])CC1 (stereo not given),9%,-3.3%,19%,-14%,10%,-11%,-3%,9%
Cc1cccc(C(=O)N/N=C/c2ccc(OC3CSC3)cc2)c1,-1%,-4.5%,-19%,-12%,0%,nt,0%,8%
CC(C)OP(=O)(c1ccc(N(C)C)cc1)C(O)c1ccccc1F (stereo not given),11%,-5.9%,0%,16%,-7%,9%,-7%,10%
COc1ccccc1N(CC(=O)NC1CCCC1)C(=O)CCC(=O)Nc1ccccn1,1%,nt,3%[46.1 µM],nt,-7%,10%,2%,nt
Cc1cccc(NC(=O)C(C)C(=O)c2ccccc2)c1 (stereo not given),?,nt,nt,nt,10%,-7%,1%,nt
CN(/N=C/c1cc(Br)cc(Br)c1O)c1cccc(C(F)(F)F)n1,-7%,nt,-18%,?,-5%,?,-48%,nt
O=C(CSc1nc(C2CC2)nc2ccccc12)NCc1ccc2c(c1)OCO2,3%,4.5%,nt,nt,nt,nt,-11%,-23%
O=C(N/N=C/c1ccccn1)c1cccc(S(=O)(=O)N2CCCC2)c1,-3%,nt,nt,nt,11%,4%,-8%,nt

# Following part.
SMILES,SARS PLpro yeast,Cruzain inh Det,MARV entry inh,Lassa entry inh,RE007 growth inh,2A StopGo,NS1 function inh,Cruzain noTriton
CCN(CC)c1nc(N)c2c(N)n(-c3ccccc3C)c(=S)c(C#N)c2c1C#N,-5%,1.8%,4%,11%,-2%,-10%,?,-1%
O=C(NCCc1ccccc1)C(=O)Nc1cccc(Br)c1,nt,-2.4%,nt,18%[46.1 µM],nt,8%,nt,0%
CCCCn1c(N)c(N(CC(C)C)C(=O)C2CSC3(C)CCC(=O)N23)c(=O)[nH]c1=O (stereo not given),1%,nt,-16%[46.1 µM],-8%,3%,-4%,nt,nt
O=C(CCCN1C(=O)/C(=C/c2cccs2)SC1=S)Nc1cc([N+](=O)[O-])ccc1O,19%,nt,nt,nt,11%,-11%,-7%,nt
Cc1ccc(Cc2c(C)nc3nc(SCC(=O)N4CCC5(CC4)OCCO5)nn3c2C)cc1,-3%,-2.9%,3%[46.1 µM],1%,-2%,?,-4%,?
CCOC(=O)CCC(=O)N1CCOCCN(C(=O)CCC(=O)OCC)CCOCC1,2%,0.2%,0%[46.1 µM],-3%,5%,-4%,-3%,2%
CCOc1cc(S(=O)(=O)N2CCN(C(=O)c3ccco3)CC2)ccc1F,-1%,nt,nt,nt,1%,-18%,-16%,nt
c1ccc(Cc2ccc(OCCN3CCOCC3)cc2)cc1,-4%,nt,?,4%,-4%,5%,-17%,nt
O=C(c1nc2ccccn2c1CNCCn1ccc2ccccc21)N1CCOCC1,0%,nt,nt,nt,4%,-2%,1%,nt
Cc1ccccc1NC(=O)/C(C#N)=C/c1ccccc1C(F)(F)F,-2%,-5.5%,?,2%,-8%,-2%,3%,6%
CCOc1ncccc1C(=O)OCC(=O)N1CCN(S(=O)(=O)c2ccccc2)CC1,-3%,-4.3%,-1%,-1%,3%,-16%,-7%,8%
